# Assay outcomes from PubChem BioAssay.
# YB-1 expression = inhibitors of YB-1 gene expression, primary screen, cell-based, fluorescence. U2OS, qRT-PCR YB-1 vs CDIP delta delta Cp, 16 h; stronger effect = higher value; zero = DMSO, each unit about twofold. delta delta Cp (YB-1 minus CDIP) (no concentration beside the values). actives 0.37% (n = 30,000). AID 434959, 2010;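 active = delta delta Cp rounded down to an integer at or above 3, about 3 SD of DMSO wells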;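 note: higher means less YB-1 transcript or more CDIP transcript relative to DMSO; stock transfer was 100 nL into about 100 µL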
# Numbers without * were called inactive. The list is partial; rates above refer to the full screens.
canonical_smiles | YB-1 expression
C[C@H]1CN([C@@H](C)CO)C(=O)CCCn2cc(nn2)CO[C@@H]1CN(C)C(=O)CCCN(C)C | -0.463
[N-]=[N+]=NCc1ccccc1C[C@]1(C(=O)N2CCCCC2)N=C(c2ccc(OCCCO)cc2)O[C@H]1c1ccccc1 | -0.0634
C[C@H]1CN([C@@H](C)CO)C(=O)CCCn2cc(nn2)CO[C@H]1CN(C)C(=O)C1CCCCC1 | 0.11
COC(=O)CCCCCCC(=O)N/N=C/c1ccccn1 | 0.0621
C#CCOc1ccc(/C=N/NC(=O)c2cccc(C(=O)NO)c2)cc1 | -0.0201
O=C(NO)c1cccc(C(=O)N/N=C/c2cccc(Oc3ccccc3)c2)c1 | 0.0843
O=C(N/N=C/c1c(O)cc(O)cc1O)c1ccccc1O | -0.243
Cc1ccc(S[C@]2(C(=O)NC(C)C)CC(=O)N(C(C)C)[C@@H]2c2ccc(CO)cc2I)cc1 | -0.337
COC(=O)CCCCCCC(=O)N/N=C/c1cc(OC)c(O)cc1Br | 0.0152
C[C@@H]1CN([C@@H](C)CO)C(=O)CCCn2nncc2CO[C@@H]1CN(C)C(=O)Nc1cccc2ccccc12 | 0.0531
COc1cccc(CN(C)C[C@H]2OCc3cnnn3CCCC(=O)N([C@H](C)CO)C[C@H]2C)c1 | -0.144
COC(=O)CCCCCCC(=O)N/N=C/c1ccc(-c2ccccc2)c(F)c1 | -0.193
C[C@@H]1CN([C@H](C)CO)C(=O)c2cc(N(C)C)ccc2O[C@H]1CN(C)Cc1ccc(C(=O)Nc2ccccc2N)cc1 | 0.274
C[C@@H]1CN([C@@H](C)CO)C(=O)CCCn2cc(nn2)CO[C@H]1CN(C)S(=O)(=O)c1ccc2ccccc2c1 | 0.0313
CC1=C(C/C=N/NC(=O)c2cccc(C(=O)NO)c2)C(C)(C)CCC1 | -0.303
COc1ccc(NC(=O)N(C)C[C@@H]2Oc3ncc(-c4ccc(OC)cc4)cc3C(=O)N([C@H](C)CO)C[C@@H]2C)cc1 | -0.889
O=S(=O)(N[C@@H]1CCCN(Cc2cccc(OCCO)c2)C1)c1ccc(-c2ccccc2)cc1 | -0.0662
COc1ccc(NC(=O)N(C)C[C@@H]2Oc3ncc(C#Cc4ccc(OC)c(OC)c4)cc3C(=O)N([C@H](C)CO)C[C@@H]2C)cc1 | 0.23
C[C@@H]1CN([C@@H](C)CO)C(=O)CCCn2nncc2CO[C@H]1CN(C)C(=O)Nc1ccnc(N2CCOCC2)c1 | -0.0444
C=CCN1C(=O)[C@]2(O[C@H](CCn3cc([C@H](O)c4ccccc4)nn3)[C@@H]([Si](C)(C)c3ccc(OC)cc3)[C@@H]2C)c2cc(N3CCC3=O)ccc21 | 0.292

# 3 entries already listed, ordered by their value in YB-1 expression, low to high.
canonical_smiles | YB-1 expression
COC(=O)CCCCCCC(=O)N/N=C/c1ccc(-c2ccccc2)c(F)c1 | -0.193
C#CCOc1ccc(/C=N/NC(=O)c2cccc(C(=O)NO)c2)cc1 | -0.0201
C=CCN1C(=O)[C@]2(O[C@H](CCn3cc([C@H](O)c4ccccc4)nn3)[C@@H]([Si](C)(C)c3ccc(OC)cc3)[C@@H]2C)c2cc(N3CCC3=O)ccc21 | 0.292

# Further structures follow.
canonical_smiles | YB-1 expression
COCCOC(=O)N1C(=O)[C@@]2(c3cc(C#CCC(C(=O)OC)C(=O)OC)ccc31)[C@H](c1ccccc1OCCO)N1[C@H](c3ccccc3)[C@H](c3ccccc3)OC(=O)[C@H]1[C@@H]2C(=O)NC[C@H](O)c1ccccc1 | -0.265
C[C@@H]1CN([C@H](C)CO)C(=O)CCCn2cc(nn2)CO[C@@H]1CN(C)Cc1ccccc1C(F)(F)F | 0.21
C[C@H](CO)N1C[C@H](C)[C@H](CN(C)S(=O)(=O)c2ccc(F)cc2)Oc2ncc(-c3cccc(C(F)(F)F)c3)cc2C1=O | -0.0637
C=CCNC(=O)[C@H]1[C@@H]2C(=O)O[C@@H](c3ccccc3)[C@@H](c3ccccc3)N2[C@@H](c2ccccc2OCCO)[C@]12C(=O)N(C(=O)OCCOC)c1ccc(C#CCC(C(=O)OC)C(=O)OC)cc12 | 0.0442
C[C@H](CO)N1C[C@H](C)[C@H](CN(C)Cc2ccccc2C(F)(F)F)OCc2cn(nn2)CCCC1=O | -0.375
C[C@H](CO)N1C[C@H](C)[C@H](CN(C)Cc2ccc3c(c2)OCO3)Oc2ncc(-c3ccc(F)cc3)cc2C1=O | -0.235
O=C(O)c1cccc(/C=N/NC(=O)c2ccccn2)c1 | -0.0789
C[C@H](CO)N1C[C@H](C)[C@H](CN(C)Cc2cccc(C(F)(F)F)c2)Oc2ncc(-c3cccc(F)c3)cc2C1=O | 0.115
C[C@H]1CN([C@@H](C)CO)C(=O)CCCn2cc(nn2)CO[C@H]1CN(C)S(C)(=O)=O | -0.151
C[C@H]1CN([C@@H](C)CO)C(=O)CCCn2nncc2CO[C@H]1CN(C)Cc1ccc(O)cc1 | -0.0155
CCOC(=O)C1C2C=CC3(O2)C1C(=O)N(Cc1ccccc1)C3C(=O)NCc1ccccc1 (stereo not drawn) | 0.392
COc1ccc([Si](C)(C)[C@@H]2[C@@H](CCO)O[C@]3(C(=O)N(c4ccccc4)c4ccccc43)[C@H]2C)cc1 | -0.0092
C[C@H](CO)N1C[C@H](C)[C@H](CN(C)S(=O)(=O)c2cccc(C#N)c2)OCc2cn(nn2)CCCC1=O | 0.224
C[C@H]1CN([C@@H](C)CO)C(=O)CCCn2nncc2CO[C@@H]1CN(C)S(=O)(=O)c1ccc(Oc2ccccc2)nc1 | -0.239
O=C(NO)c1cccc(C(=O)N/N=C/c2cccnc2Br)c1 | 0.0751
COc1ccc(NC(=O)N(C)C[C@H]2OCc3cn(nn3)CCCC(=O)N([C@H](C)CO)C[C@H]2C)c(OC)c1 | 0.0224
C[C@H](CO)N1C[C@H](C)[C@H](CN(C)S(=O)(=O)c2cccc(F)c2)Oc2ncc(Br)cc2C1=O | -0.153
C[C@H](CO)N1C[C@H](C)[C@H](CN(C)S(=O)(=O)c2ccc(F)cc2)Oc2ncc(-c3cc4ccccc4o3)cc2C1=O | 0.179
C[C@H](CO)N1C[C@H](C)[C@H](CN(C)S(=O)(=O)c2cccc(F)c2)Oc2ncc(C#CC(C)(C)O)cc2C1=O | -0.131
COCCOC(=O)N1C(=O)[C@@]2(c3cc(C#CC4=CCCCC4)ccc31)[C@H](C(N)=O)[C@H]1C(=O)O[C@H](c3ccccc3)[C@H](c3ccccc3)N1[C@@H]2c1ccc(O)cc1 | -0.0442
CC(C)COC(=O)N(C)C[C@H]1OCc2cnnn2CCCC(=O)N([C@@H](C)CO)C[C@H]1C | -0.44
C[C@@H]1CN([C@H](C)CO)C(=O)CCCn2cc(nn2)CO[C@H]1CN(C)C(=O)Nc1ccc(-c2cccs2)cc1 | 0.0707
O=C(NO)c1cccc(C(=O)N/N=C/c2ccc(Br)o2)c1 | -0.466
Cc1ccc(OC(=O)N(C)C[C@@H]2OCc3cn(nn3)CCCC(=O)N([C@H](C)CO)C[C@H]2C)cc1 | 0.318
C[C@@H]1CN([C@@H](C)CO)C(=O)CCCn2cc(nn2)CO[C@H]1CN(C)C(=O)Nc1ccc(N2CCCCC2)cc1 | -0.681
C[C@@H]1CN([C@@H](C)CO)C(=O)CCCn2cc(nn2)CO[C@@H]1CN(C)S(=O)(=O)c1ccc(F)cc1 | 0.0353
C=CCNC(=O)[C@H]1[C@@H]2C(=O)O[C@@H](c3ccccc3)[C@@H](c3ccccc3)N2[C@@H](c2ccccc2OCCO)[C@]12C(=O)Nc1ccccc12 | -0.395
COc1cccc(-c2cnc3c(c2)C(=O)N([C@H](C)CO)C[C@H](C)[C@H](CN(C)C(=O)Nc2ccc4c(c2)OCO4)O3)c1 | -0.567
C[C@H](CO)N1C[C@H](C)[C@H](CN(C)Cc2cccc(O)c2)OCc2cn(nn2)CCCC1=O | 0.0155
CCCC(O)C#Cc1cnc2c(c1)C(=O)N([C@H](C)CO)C[C@H](C)[C@H](CN(C)S(C)(=O)=O)O2 (stereo partly drawn) | 0.192
O=C(CCCCCCC(=O)Nc1ccccc1O)N/N=C/c1nccs1 | -0.0866
C[C@H](CO)N1C[C@H](C)[C@@H](CN(C)Cc2ccccc2)OCc2cnnn2CCCC1=O | 0.138
C[C@H]1CN([C@@H](C)CO)C(=O)CCCn2cc(nn2)CO[C@H]1CN(C)S(=O)(=O)c1cn(C)cn1 | -0.0456
C[C@H](CO)N1C[C@H](C)[C@@H](CN(C)Cc2cccc(C(=O)O)c2)OCc2cn(nn2)CCCC1=O | -0.216

# Structures above with sulfur, in the order listed:
canonical_smiles | YB-1 expression
Cc1ccc(S[C@]2(C(=O)NC(C)C)CC(=O)N(C(C)C)[C@@H]2c2ccc(CO)cc2I)cc1 | -0.337
C[C@@H]1CN([C@@H](C)CO)C(=O)CCCn2cc(nn2)CO[C@H]1CN(C)S(=O)(=O)c1ccc2ccccc2c1 | 0.0313
O=S(=O)(N[C@@H]1CCCN(Cc2cccc(OCCO)c2)C1)c1ccc(-c2ccccc2)cc1 | -0.0662
C[C@H](CO)N1C[C@H](C)[C@H](CN(C)S(=O)(=O)c2ccc(F)cc2)Oc2ncc(-c3cccc(C(F)(F)F)c3)cc2C1=O | -0.0637
C[C@H]1CN([C@@H](C)CO)C(=O)CCCn2cc(nn2)CO[C@H]1CN(C)S(C)(=O)=O | -0.151
C[C@H](CO)N1C[C@H](C)[C@H](CN(C)S(=O)(=O)c2cccc(C#N)c2)OCc2cn(nn2)CCCC1=O | 0.224
C[C@H]1CN([C@@H](C)CO)C(=O)CCCn2nncc2CO[C@@H]1CN(C)S(=O)(=O)c1ccc(Oc2ccccc2)nc1 | -0.239
C[C@H](CO)N1C[C@H](C)[C@H](CN(C)S(=O)(=O)c2cccc(F)c2)Oc2ncc(Br)cc2C1=O | -0.153
C[C@H](CO)N1C[C@H](C)[C@H](CN(C)S(=O)(=O)c2ccc(F)cc2)Oc2ncc(-c3cc4ccccc4o3)cc2C1=O | 0.179
C[C@H](CO)N1C[C@H](C)[C@H](CN(C)S(=O)(=O)c2cccc(F)c2)Oc2ncc(C#CC(C)(C)O)cc2C1=O | -0.131
C[C@@H]1CN([C@H](C)CO)C(=O)CCCn2cc(nn2)CO[C@H]1CN(C)C(=O)Nc1ccc(-c2cccs2)cc1 | 0.0707
C[C@@H]1CN([C@@H](C)CO)C(=O)CCCn2cc(nn2)CO[C@@H]1CN(C)S(=O)(=O)c1ccc(F)cc1 | 0.0353
CCCC(O)C#Cc1cnc2c(c1)C(=O)N([C@H](C)CO)C[C@H](C)[C@H](CN(C)S(C)(=O)=O)O2 (stereo partly drawn) | 0.192
O=C(CCCCCCC(=O)Nc1ccccc1O)N/N=C/c1nccs1 | -0.0866
C[C@H]1CN([C@@H](C)CO)C(=O)CCCn2cc(nn2)CO[C@H]1CN(C)S(=O)(=O)c1cn(C)cn1 | -0.0456
